# Yeast UUG start = modulators of yeast start codon fidelity, primary screen, whole organism, S. cerevisiae, single point, plate reader | S. cerevisiae UUG-firefly luciferase reporter, luminescence/redox ratio | activity score, % at 18.7 µM | actives 0.13% (n = 350,000) | AID 602363, 2012;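 active = replicate mean at a twofold rise or more, about +100% in these data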;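 also: firefly luciferase made from a UUG start codon reports start codon fidelity; reporter light over untreated wells divided by growth signal over untreated wells; some hits fall short of that in this replicate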
# HIV Env fusion = inhibitors of HIV-1 Env-driven cell-cell fusion, primary screen, HeLa-JRFL effector, CEM21 target cells, luciferase. AID 651610, 2012. actives 1.1% (n = 360,000). inhibition, % at 12.3 µM;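 active = mean replicate inhibition score of at least 50 and every replicate individually at or above 50; inconclusive = only one of the two criteria met; inactive = mean below 50 and not all replicates reaching 50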;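 also: 0% = plate neutral controls and 100% = maraviroc near 300 nM; one replicate is shown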
# Starred values were filed as active, the others as inactive; ? = inconclusive; [ ] = another dose, or the depositor's remark. Only part of the results is shown; count on the stated rates, not on these rows.
Yeast UUG start,HIV Env fusion,smiles
-0.4,16.0[16.7 µM],COc1ccc(S(=O)(=O)N(C)C[C@H]2Oc3c(NC(=O)Nc4ccc(C(F)(F)F)cc4)cccc3C(=O)N([C@@H](C)CO)C[C@@H]2C)cc1
-7.2,-10.8[16.7 µM],CN(C)CC(=O)N[C@H]1C=C[C@H](CC(=O)NCc2ccc(Cl)cc2)O[C@H]1CO
2.0,-20.1[16.7 µM],COCC#Cc1ccc2c(c1)O[C@@H](CN(C)C(=O)CC1CC1)[C@H](C)CN([C@@H](C)CO)S2(=O)=O
1.0,-0.6[16.7 µM],COc1cccc(-c2ccc([C@@H]3[C@H](C#N)N(C(=O)c4ccccn4)[C@H]3CO)cc2)c1
0.1,-24.7[16.7 µM],C[C@@H]1CN([C@@H](C)CO)C(=O)c2cc(-c3ccc(C(=O)N(C)C)cc3)cnc2O[C@H]1CN(C)C(=O)CN(C)C
-21.3,-3.3[16.7 µM],C[C@H]1CN([C@@H](C)CO)C(=O)Cc2cc(NC(=O)CCCN(C)C)ccc2O[C@H]1CN(C)CC1CCCCC1
-9.6,14.6[16.7 µM],C[C@@H]1CCCCO[C@@H](CN(C)C)[C@@H](C)CN([C@H](C)CO)C(=O)c2cc(NC(=O)Nc3ccccc3)ccc2O1
3.2,15.2[16.7 µM],C[C@@H]1CCCCO[C@H](CN(C)C(=O)Cc2ccccc2)[C@H](C)CN([C@H](C)CO)C(=O)c2cc(NC(=O)CCC(F)(F)F)ccc2O1
19.0,0.2[16.7 µM],Cc1noc(C)c1NC(=O)Nc1ccc2c(c1)C(=O)N([C@H](C)CO)C[C@@H](C)[C@@H](CN(C)C(=O)NC1CCCCC1)OCCCC[C@@H](C)O2
-11.4,36.6[16.7 µM],CCCC#Cc1ccc2c(c1)O[C@@H](CN(C)C(=O)C1CCCCC1)[C@H](C)CN([C@@H](C)CO)S2(=O)=O
2.8,32.6[16.7 µM],C[C@@H]1CN([C@H](C)CO)C(=O)Cc2cc(NC(=O)Nc3ccc(F)cc3)ccc2O[C@H]1CN(C)S(=O)(=O)c1ccccc1
-16.2,7.4[16.7 µM],C[C@@H]1CN([C@H](C)CO)C(=O)c2cc(NS(=O)(=O)c3ccccc3)ccc2O[C@@H](C)CCCCO[C@@H]1CN(C)S(=O)(=O)c1cccs1
-5.0,-14.7[16.7 µM],COc1ccc(S(=O)(=O)N(C)C[C@@H]2Oc3ncc(C#Cc4ccc(F)cc4)cc3C(=O)N([C@H](C)CO)C[C@@H]2C)cc1
-18.9,2.4[16.7 µM],Cc1noc(C)c1NC(=O)N[C@@H]1C=C[C@@H](CC(=O)N2CCCCC2)O[C@H]1CO
-9.6,-0.2[16.7 µM],COc1cccc(S(=O)(=O)N(C)C[C@@H]2Oc3ncc(C#CC(C)C)cc3C(=O)N([C@H](C)CO)C[C@H]2C)c1
0.6,-4.3[16.7 µM],C[C@H](O)C#Cc1ccc2c(c1)O[C@@H](CN(C)Cc1cncnc1)[C@H](C)CN([C@H](C)CO)S2(=O)=O
-3.3,30.0[16.7 µM],C[C@H](CO)N1C[C@H](C)[C@@H](CN(C)S(=O)(=O)c2ccc(Cl)cc2)Oc2c(NS(=O)(=O)c3cn(C)cn3)cccc2C1=O
15.3,-5.6[16.7 µM],COc1ccc(S(=O)(=O)N(C)C[C@@H]2OCCCC[C@@H](C)Oc3ccc(NC(=O)c4ccncc4)cc3C(=O)N([C@@H](C)CO)C[C@H]2C)cc1
-8.4,2.0[16.7 µM],C[C@@H]1CN([C@@H](C)CO)S(=O)(=O)c2ccc(-c3cccnc3)cc2O[C@H]1CN(C)Cc1ccncc1
-2.0,-4.4[16.7 µM],COc1ccc(S(=O)(=O)Nc2ccc3c(c2)C(=O)N([C@H](C)CO)C[C@@H](C)[C@H](CN(C)C)O3)cc1
13.5,23.5[16.7 µM],Cc1noc(C)c1S(=O)(=O)Nc1cccc2c1O[C@H](CN(C)Cc1ccc(-c3ccccc3)cc1)[C@H](C)CN([C@@H](C)CO)C2=O
-6.4,4.1[16.7 µM],Cc1noc(C)c1NC(=O)Nc1ccc2c(c1)C(=O)N([C@H](C)CO)C[C@H](C)[C@H](CN(C)S(=O)(=O)c1cccs1)OCCCC[C@@H](C)O2
17.6,-1.9[16.7 µM],C[C@@H]1CN([C@H](C)CO)C(=O)c2cc(N(C)C)ccc2O[C@@H](C)CCCCO[C@H]1CN(C)S(=O)(=O)c1ccc(F)cc1
-5.4,-1.0[16.7 µM],CCC(=O)Nc1ccc2c(c1)C(=O)N(C)C[C@@H](OC)[C@H](C)CN(Cc1ccccc1OC)[C@@H](C)CO2
-4.1,-44.8[16.7 µM],Cc1noc(C)c1S(=O)(=O)Nc1ccc2c(c1)C(=O)N([C@H](C)CO)C[C@@H](C)[C@@H](CN(C)S(=O)(=O)c1ccc(Cl)cc1)OCCCC[C@H](C)O2
-11.9,17.1[16.7 µM],O=C(Cc1ccncc1)Nc1ccc2c(c1)[C@H]1C[C@H](CC(=O)N3CCCCC3)O[C@@H](CO)[C@H]1O2
-11.4,11.0[16.7 µM],C[C@H](NC(=O)C[C@H]1CC[C@@H](NC(=O)C2CC2)[C@H](CO)O1)c1ccccc1
-7.7,19.5[16.7 µM],C[C@@H]1CN([C@@H](C)CO)S(=O)(=O)c2ccc(C#CC3CC3)cc2O[C@H]1CN(C)Cc1cccc(F)c1
4.8,1.4[16.7 µM],Cc1ccc(-c2ccc3c(c2)O[C@@H](CN(C)C(=O)CN(C)C)[C@H](C)CN([C@@H](C)CO)S3(=O)=O)cc1
-3.5,-26.3[16.7 µM],COc1ccc(CN(C)C[C@H]2OCCCC[C@H](C)Oc3ccc(NC(=O)CCC(F)(F)F)cc3C(=O)N([C@@H](C)CO)C[C@H]2C)cc1
-3.4,-9.2[16.7 µM],COCC(=O)N(C)C[C@H]1Oc2cc(C#CCN(C)C)ccc2S(=O)(=O)N([C@H](C)CO)C[C@@H]1C
18.2,-5.9[16.7 µM],O=C1NCC(=O)N2[C@@H]1C[C@@H](C(=O)NCc1ccc(F)cc1)[C@H]2c1cccc(OCCO)c1
-1.4,19.1[16.7 µM],COc1ccc(S(=O)(=O)N(C)C[C@H]2Oc3cc(C#CC4CCCC4)ccc3S(=O)(=O)N([C@@H](C)CO)C[C@H]2C)cc1
20.2,-33.4[16.7 µM],COc1ccc(S(=O)(=O)N(C)C[C@H]2Oc3c(NS(=O)(=O)c4ccc(F)cc4)cccc3C(=O)N([C@@H](C)CO)C[C@H]2C)cc1
-1.4,-16.3[16.7 µM],COc1ccc(S(=O)(=O)Nc2ccc3c(c2)C(=O)N([C@H](C)CO)C[C@H](C)[C@@H](CN(C)C(=O)NC2CCCCC2)OCCCC[C@@H](C)O3)cc1
-0.7,-5.6[16.7 µM],C[C@@H]1CCCCO[C@@H](CN(C)C(=O)CCCN(C)C)[C@H](C)CN([C@H](C)CO)C(=O)c2cc(NC(=O)CCC(F)(F)F)ccc2O1
-3.5,3.2[16.7 µM],C[C@H]1CN([C@@H](C)CO)C(=O)Cc2cc(NC(=O)Nc3ccc(F)cc3)ccc2O[C@@H]1CN(C)S(=O)(=O)c1ccc(F)cc1
-5.1,-4.4[16.7 µM],C[C@@H]1CCCCO[C@H](CN(C)C(=O)c2ccncc2)[C@@H](C)CN([C@H](C)CO)C(=O)c2cc(NC(=O)CCCN(C)C)ccc2O1
4.8,1.3[16.7 µM],Cc1noc(C)c1S(=O)(=O)Nc1ccc2c(c1)C(=O)N([C@H](C)CO)C[C@@H](C)[C@H](CN(C)C(=O)NC(C)C)O2
0.4,-10.2[16.7 µM],COc1ccc(S(=O)(=O)Nc2ccc3c(c2)C(=O)N([C@@H](C)CO)C[C@@H](C)[C@H](CN(C)S(=O)(=O)c2ccc(OC)cc2)OCCCC[C@H](C)O3)cc1
-6.0,-0.5[16.7 µM],C[C@H](CO)N1C[C@H](C)[C@H](CN(C)S(C)(=O)=O)OCCCC[C@H](C)Oc2ccc(NC(=O)Nc3ccc(C(F)(F)F)cc3)cc2C1=O
0.1,14.0[16.7 µM],C[C@H]1CN([C@@H](C)CO)S(=O)(=O)c2ccc(-c3cccc(C(=O)N(C)C)c3)cc2O[C@@H]1CN(C)Cc1ccc2c(c1)OCO2
-3.4,16.4[16.7 µM],COc1cccc(NC(=O)N(C)C[C@H]2Oc3ncc(C#Cc4ccc(F)cc4)cc3C(=O)N([C@H](C)CO)C[C@H]2C)c1
-9.2,27.0[16.7 µM],O=C(C[C@H]1C[C@H]2c3cc(NC(=O)C4CCC4)ccc3O[C@H]2[C@H](CO)O1)NCc1ccccc1
2.9,-20.4[16.7 µM],COC(=O)CCCCCCC(=O)Nc1ccc(C=O)cc1
7.9,-9.9[16.7 µM],C[C@H](NC(=O)C[C@H]1C=C[C@@H](NC(=O)CN2CCOCC2)[C@@H](CO)O1)c1ccccc1
30.5,?,C[C@@H]1CN([C@@H](C)CO)C(=O)c2cc(NC(=O)Nc3ccc(F)cc3)ccc2O[C@@H](C)CCCCO[C@H]1CN(C)S(=O)(=O)c1ccccc1
6.0,-16.3[16.7 µM],COc1ccc(NC(=O)N(C)C[C@@H]2OCCCC[C@@H](C)Oc3ccc(NS(=O)(=O)c4ccc(F)cc4)cc3C(=O)N([C@H](C)CO)C[C@@H]2C)cc1
-3.6,-21.5[16.7 µM],CN1C(=O)c2cc(NC(=O)c3ccc(F)c(F)c3)ccc2OC[C@H]2O[C@@H](CC(=O)O)CC[C@@H]21
8.6,-30.9[16.7 µM],C[C@@H]1CN([C@@H](C)CO)S(=O)(=O)c2ccc(C#CCN(C)C)cc2O[C@H]1CN(C)C(=O)CC1CC1

# Next part
Yeast UUG start,HIV Env fusion,smiles
0.1,-1.1[16.7 µM],C[C@@H]1CN([C@H](C)CO)C(=O)c2cc(C#Cc3ccccc3F)cnc2O[C@H]1CN(C)C
-10.7,-0.7[16.7 µM],Cc1ccc(-c2cnc3c(c2)C(=O)N([C@@H](C)CO)C[C@@H](C)[C@H](CN(C)C(=O)c2cccnc2)O3)cc1
-13.6,7.3[16.7 µM],COc1ccc(S(=O)(=O)Nc2ccc3c(c2)CC(=O)N([C@@H](C)CO)C[C@@H](C)[C@@H](CN(C)Cc2ccc(C(=O)O)cc2)O3)cc1
8.4,-64.8[16.7 µM],C[C@H]1CN([C@@H](C)CO)C(=O)Cc2cc(NS(=O)(=O)c3ccc(F)cc3)ccc2O[C@H]1CN(C)Cc1ccc(C(=O)Nc2ccccc2N)cc1
-7.6,-6.7[16.7 µM],COc1cc2c(cc1OC)CN(C(=O)[C@H]1[C@@H]3C(=O)O[C@@H](c4ccccc4)[C@@H](c4ccccc4)N3[C@@H](c3ccccc3OCCO)[C@]13C(=O)Nc1ccc(C#CC4=CCCCC4)cc13)CC2
-3.1,-2.1[16.7 µM],Cc1noc(C)c1NC(=O)Nc1ccc2c(c1)CC(=O)N([C@H](C)CO)C[C@@H](C)[C@@H](CN(C)CC1CCCCC1)O2
-1.9,-7.3[16.7 µM],C[C@@H]1CN([C@H](C)CO)C(=O)c2cc(Br)cnc2O[C@H]1CN(C)C(=O)c1ccccn1
6.4,10.4[16.7 µM],COc1ccc(S(=O)(=O)N2C[C@@H](O)COC[C@H]3O[C@@H](CC(=O)N[C@H]4CCN(Cc5ccccc5)C4)CC[C@@H]32)cc1
-11.2,6.9[16.7 µM],C[C@@H]1CN([C@H](C)CO)C(=O)c2cccc(NS(C)(=O)=O)c2O[C@@H]1CN(C)S(=O)(=O)c1cn(C)cn1
41.5,43.9[16.7 µM],C[C@@H]1CN([C@@H](C)CO)C(=O)c2cc(NC(=O)CCC(F)(F)F)ccc2O[C@@H](C)CCCCO[C@@H]1CN(C)C(=O)Nc1ccccc1
-5.1,-20.7[16.7 µM],C[C@H](NC(=O)C[C@H]1CC[C@H](NC(=O)CN2CCOCC2)[C@@H](CO)O1)c1ccccc1
14.8,-3.2[16.7 µM],CC(C)NC(=O)N(C)C[C@@H]1Oc2ncc(C#CC3(O)CCCC3)cc2C(=O)N([C@H](C)CO)C[C@H]1C
-3.8,-14.5[16.7 µM],C/C=C/c1cnc2c(c1)C(=O)N([C@H](C)CO)C[C@@H](C)[C@@H](CN(C)Cc1ccncc1)O2
10.2,-17.2,C[C@H](CO)N1C[C@H](C)[C@@H](CN(C)C(=O)Nc2cccc(Oc3ccccn3)c2)OCc2cn(nn2)CCCC1=O
-9.4,38.8[16.7 µM],COCC(=O)Nc1ccc2c(c1)[C@H]1C[C@@H](CC(=O)NCc3ccc(-c4ccccc4)cc3)O[C@H](CO)[C@H]1O2
19.3,6.9[16.7 µM],CC(C)NC(=O)Nc1ccc2c(c1)CC(=O)N([C@@H](C)CO)C[C@H](C)[C@@H](CN(C)C(=O)Nc1ccccc1)O2
-14.9,15.3[16.7 µM],CC(C)CC#Cc1ccc2c(c1)O[C@H](CN(C)Cc1ccccn1)[C@@H](C)CN([C@H](C)CO)S2(=O)=O

# One compound at a time, from the list above. Order of values: Yeast UUG start | HIV Env fusion
# CC(C)NC(=O)N(C)C[C@@H]1Oc2ncc(C#CC3(O)CCCC3)cc2C(=O)N([C@H](C)CO)C[C@H]1C as listed: 14.8 | -3.2[16.7 µM]
# C/C=C/c1cnc2c(c1)C(=O)N([C@H](C)CO)C[C@@H](C)[C@@H](CN(C)Cc1ccncc1)O2 as listed: -3.8 | -14.5[16.7 µM]
# CC(C)NC(=O)Nc1ccc2c(c1)CC(=O)N([C@@H](C)CO)C[C@H](C)[C@@H](CN(C)C(=O)Nc1ccccc1)O2 as listed: 19.3 | 6.9[16.7 µM]
# COc1ccc(S(=O)(=O)N2C[C@@H](O)COC[C@H]3O[C@@H](CC(=O)N[C@H]4CCN(Cc5ccccc5)C4)CC[C@@H]32)cc1 as listed: 6.4 | 10.4[16.7 µM]
# C[C@@H]1CN([C@@H](C)CO)C(=O)c2cc(NC(=O)CCC(F)(F)F)ccc2O[C@@H](C)CCCCO[C@@H]1CN(C)C(=O)Nc1ccccc1 as listed: 41.5 | 43.9[16.7 µM]

# Compound activity: PubChem, Broad Institute
